HPGD block – blocks human HPGD enzyme activity; P15428; purified HPGD, NADH fluorescence kinetic, PGE2 substrate; Potency, µM, for the others: at the top dose activity change, negative = inhibition, most hits filed as inhibitors; 150,000 compounds, 4.3% hits; AID 894; active = well fitted inhibition curve with a large enough effect (not every such curve was filed as active); inconclusive = small, poorly fitted or top-dose-only effect, or another doubt; inactive = no such curve, though single readings can be large or run the other way;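 further: top concentration of the series not given in the record; plate controls included wells without enzyme; inactives centre near -10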
Target sequence (P15428 whole entry, looked up): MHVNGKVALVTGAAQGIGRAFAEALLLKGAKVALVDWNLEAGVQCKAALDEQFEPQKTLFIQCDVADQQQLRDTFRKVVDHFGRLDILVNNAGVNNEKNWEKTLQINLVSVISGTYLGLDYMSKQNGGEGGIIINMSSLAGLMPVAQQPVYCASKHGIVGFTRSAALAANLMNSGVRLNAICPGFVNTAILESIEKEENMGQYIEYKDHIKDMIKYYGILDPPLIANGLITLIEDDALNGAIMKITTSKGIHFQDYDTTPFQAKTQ
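NADH formation kinetics: reaction with 30 uM PGE2 and 1 mM NAD+ (final), 20 nM enzyme, Tris-HCl pH 8 with Tween 20, after 15 min compound preincubation at room temperature. Fluorescence change, last versus first of five reads.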
Active calls of the source: *; ? = inconclusive. On the % scale 0 is the no-effect control and ±100 the full control effect; potency means the concentration at half of the fitted maximal effect. Not all compounds are listed (hit frequency here may not be typical).

HPGD block	mol
31.6µM*	NC(=O)c1cc[n+](CC2=C(C(=O)O)N3C(=O)C(NC(=O)C(c4ccccc4)S(=O)(=O)[O-])C3SC2)cc1 (configuration not stated)
-20.8%	Fc1ccccc1Cn1nnc2c(NCc3ccccn3)ncnc21
-8.1%	CCN(CC)S(=O)(=O)c1cccc(C(=O)OCC(=O)Nc2ccccc2OC(F)F)c1
-9.8%	O=C(O)c1cnn2c(C(F)F)cc(C3CC3)nc12
-8.5%	Cc1ccccc1OCC(=O)N/N=C/c1ccncc1
-10.5%	Cc1cc(NC(=O)c2cc(Cl)ccc2Cl)no1
-4.6%	Cc1ccc(CC2C(=O)N(c3ncccn3)C(=O)C2C)cc1 (configuration not stated)
8.5%	CC(C)(C)C1=NN(C(=O)c2ccccc2)C(O)(C(C)(C)C)C1 (configuration not stated)
2.7%	Cc1ccc(-c2nnc(SC(C)C#N)n2N)cc1 (configuration not stated)
?	Cc1cc(C)n(-c2nc(C)nc3c2cnn3-c2ccccc2)n1
-1.1%	CC(CC1CC(C)(C)OC1=O)C(=O)Nc1nncs1 (configuration not stated)
-7.1%	COc1ccccc1NC(=O)C1=C(C)NC(=O)NC1c1ccc(C)cc1 (configuration not stated)
?	CCCNC(=O)c1c(N)n(-c2ccc(S(N)(=O)=O)cc2)c2nc3ccccc3nc12
-2.1%	Cn1nc(C(=O)NNC(=O)COc2ccccc2)c2ccccc2c1=O
?	Cc1cc2nc(-c3ccc(SCc4ccccc4C#N)nc3)[nH]c2cc1C
-15.0%	CC1CC(C)(C)CC2(C1)NC(=O)N(CC(=O)NCC(c1ccco1)N1CCCCC1)C2=O (configuration not stated)
-8.8%	CCOC(=O)C(C(=O)OCC)C1CCS(=O)(=O)C1 (configuration not stated)
-3.0%	CCCCC(=O)Nc1ccc(C(=O)Nc2ccc3c(c2)OCO3)cc1
-4.6%	CCOC(=O)CN(C(=O)CNC(=O)c1ccco1)C(C(=O)NC1CCCCC1)c1cccc(OC)c1 (configuration not stated)
-12.5%	CNCC(O)c1cccc(O)c1 (configuration not stated)
?	O=C(CCS(=O)(=O)c1ccc(Br)s1)NCc1cccs1
?	O=C(CCn1cccc1)NCc1ccc(Cl)cc1
-4.8%	CN(C)CCCN1C(=O)C(O)=C(C(=O)c2cc3ccccc3o2)C1c1ccccc1 (configuration not stated)
?	COc1ccc(CCn2c(N)c(C(=O)NCc3ccco3)c3nc4ccccc4nc32)cc1
-6.8%	COc1c(C)cc(Br)cc1C(=O)Nc1ccc(C)cc1[N+](=O)[O-]
-10.6%	Cn1cc(C(=O)NC2CCCCC2)c(=O)c2cc(S(=O)(=O)N3CCCC3)ccc21
-20.2%	N#CC1=C(SCC(=O)c2ccc(Cl)cc2)NC2=C(C(=O)CCC2)C1c1ccco1 (configuration not stated)
-5.3%	CCCCN(CCCC)C(=O)CCS(=O)(=O)c1ccc2c(c1)n(C)c(=O)c(=O)n2C
-9.9%	C[C@@H]1NC(=O)[C@H](CCC(N)=O)NC(=O)c2cc([N+](=O)[O-])cc(I)c2NCC[C@@H](C(N)=O)NC1=O
-12.2%	Nc1nc2c(c(=O)[nH]1)N(C=O)[C@H](CNc1ccc(C(=O)N[C@@H](CCC(=O)O)C(=O)O)cc1)CN2
-12.9%	COc1cc2c(cc1NC(=O)CSc1nnc(COc3ccc(Cl)cc3)n1C)oc1ccccc12
-3.8%	CC(=O)Nc1ccc(S(=O)(=O)NCc2ccc3[nH]c(C)cc3c2)cc1
2.24µM*	Cc1ccc(-n2ncc3c(NCC4CCCO4)ncnc32)c(C)c1 (configuration not stated)
25.1µM*	CC(=O)c1cc2c(cc1O)OC(C)(C)C=C2
2.0%	Cc1ccc(C)c(OCC(=O)N2CCN(C(=O)c3ccco3)CC2)c1
-7.0%	Cc1ccc(S(=O)(=O)NC(=NCC(=O)O)c2ccc(F)cc2)cc1
-19.0%	Cc1nnc(Sc2nc3ccccc3o2)c2ccccc12
-2.1%	Cc1[nH]c2ccccc2c(=O)c1CN(C)Cc1ccccc1
-10.4%	CC(=O)SCC[N+](C)(C)C
-8.9%	COc1ccc(C2/C(=C(/O)c3ccccc3)C(=O)C(=O)N2CC(C)O)c(OC)c1 (configuration not stated)
-8.8%	CCn1nc(C)cc1Nc1ccccc1
-8.6%	O=C1NC(=O)c2cc([N+](=O)[O-])ccc21
-4.1%	COc1cc(CN/C(C)=C(\C#N)C(N)=O)cc(OC)c1OC
-14.9%	Cc1ccc(Cl)cc1N1CCN(C(=O)Cc2c(C(=O)O)[nH]c3ccccc23)CC1
-6.5%	O=C(c1cc(-c2cccs2)on1)N1CCN(C(c2ccccc2)c2ccccc2)CC1
-10.9%	Cc1nc(C)c(C(=O)N/N=C/c2cn(C)c3ccccc23)s1
-8.1%	Cc1ccc(S(=O)(=O)Oc2ccc(/C=C3\N=C(c4cccc(C)c4)OC3=O)cc2)cc1
-25.9%	CCCCNC(=O)COC(=O)c1cc2c(C)nn(-c3ccccc3)c2s1
-19.3%	CC1(C)CC(=O)C2=C(C1)OC(c1ccc(O)cc1)C(C#N)=C2N (configuration not stated)
-8.2%	CNC(=O)c1snnc1-c1ccccc1
-5.1%	O=C(Cn1c(=O)oc2ccccc21)N(Cc1ccccc1)C1CCS(=O)(=O)C1 (configuration not stated)
-7.1%	CCNc1nc2c(c(=O)n(Cc3ccccc3)c(=O)n2C)n1Cc1ccccc1
-7.2%	COc1ccccc1N(CC(=O)Nc1ccc(S(=O)(=O)N2CCCCC2)cc1)S(C)(=O)=O
-6.5%	Cc1ccc(NC(=O)COC(=O)c2cc(Cl)ccc2[N+](=O)[O-])cc1
-6.4%	Cc1ccc(OCC2Cn3c(nc4c3c(=O)n(C)c(=O)n4C)O2)cc1 (configuration not stated)
-8.9%	Cc1occc1-c1nnc(SCC(=O)c2c(N)n(Cc3ccccc3)c(=O)n(C)c2=O)n1C

Next structures:
HPGD block	mol
-15.8%	COc1ccc(OC)c(-c2cc(C(=O)O)c3cc4ccccc4cc3n2)c1
-1.6%	COc1ccccc1Oc1ccc2c(c1)C(=O)N(c1ccc(C)cc1)C2=O
-3.1%	COC(=O)Cc1nc2ccccc2[nH]1
1.1%	Cc1ccc(C)c(N2CCN(C(=O)CCCOc3cc(=O)n(C)c4ccccc34)CC2)c1
-4.1%	CC(C)c1ccc(NC(=O)C2C3C=CC4(CN(CCCN5CCOCC5)C(=O)C24)O3)cc1 (configuration not stated)
-5.4%	O=C(COC(=O)CNC(=O)c1ccccc1F)NCCC1=CCCCC1
-1.8%	O=C(NCc1ccccn1)C1CCCN(Cc2cnn(-c3ccccc3)c2-n2cccc2)C1 (configuration not stated)
?	CCOC(=O)c1sc(NC(=O)CN(CC(C)C)CC(C)C)c(C(=O)OCC)c1C
?	O=c1c2c(nc(NCCO)n1CC1CCCCC1)-c1ccccc1CC21CCCC1
-27.3%	NC(=O)C1CCN(c2nc(-c3ccccc3)nc3ccccc23)CC1
-2.9%	O=C(O)CC1NC(=O)N(c2ccc(Cl)cc2)C1=O (configuration not stated)
-25.6%	Cc1nc2ccccn2c1C(=O)CSc1ccccc1Cl
-16.1%	C/C(=N/NC(=O)c1ccc2c(c1)OCO2)c1ccc(NC(=O)C(F)(F)F)cc1
3.9%	O=C(O)C1CCCCC1C(=O)NCCc1ccc(Cl)cc1 (configuration not stated)
-6.5%	CC/C(=N\NC(=O)c1ccncc1)C12CC3CC(CC(C3)C1)C2
-15.8%	O=C(Nc1ccncc1)c1cncc(Br)c1
0.631µM*	Fc1ccc(CSc2nc3ncc(Br)cc3[nH]2)cc1
?	O=C(CN1C(=O)/C(=C/c2ccccc2F)Oc2ccccc21)N1CCN(c2ccccn2)CC1
?	COc1ccc(/C(N)=N/OC(=O)Oc2ccccc2)cc1OC
?	CCCCNc1ncnc2c1cnn2-c1ccc(C)cc1C
-2.8%	Cc1ccc(C(=O)Oc2ccc(Cl)c3cccnc23)cc1[N+](=O)[O-]
-7.5%	COC(=O)c1cc(Br)c(=O)n(-c2ccccc2F)c1
-20.9%	Brc1ccc(Nc2c3c(nc4ncnn24)CCC3)cc1
-10.2%	O=C(CCn1c(=O)oc2ccccc21)n1c(=O)oc2ccccc21
-24.6%	COc1ccc(C(N)CCc2ccco2)cc1 (configuration not stated)
-7.1%	O=C(CN1CCN(c2ccc(F)cc2)CC1)NCC1CCCO1 (configuration not stated)
-9.2%	Cc1c(C(=O)OCC(C)(C)CN(C)C)oc2ccccc12
-16.1%	Cc1nc([N+](=O)[O-])c(Br)n1CC(=O)c1ccc2ccccc2c1
-17.6%	CC(=O)Nc1nnc(-c2ccc3c(c2)CCCC3)o1
-1.0%	CCOc1ccc(-n2c(Cc3cc(=O)[nH]c(=O)[nH]3)nnc2SC(C)C(=O)OC)cc1 (configuration not stated)
-5.8%	O=c1c2cnn(-c3ccc(F)cc3)c2ncn1Cc1ccc(F)cc1
?	Cc1cc(C)n(CC(O)Cn2ccc3ccccc32)n1 (configuration not stated)
-4.2%	O=S(=O)(NCc1cccnc1)c1ccccc1
-20.0%	S=C(NCc1cccnc1)Nc1cccc2ccccc12
-8.1%	Cc1ccc(S(=O)(=O)C2(C(=O)NC3CCCC3)CC2)cc1
-10.6%	Cc1nc(NCCCn2ccnc2)c2ccccc2n1
-2.1%	CCOC(=O)c1nc(C)n(-c2cc(Cl)ccc2Cl)n1
-2.2%	CCOC(=O)C1CCN(C(=O)Cc2cccs2)CC1
-5.6%	COc1ccc(C(C(=O)NC2CCCCC2)N(C(=O)CCl)c2cccc(Cl)c2)cc1 (configuration not stated)
-3.5%	Cc1ncoc1C(=O)Nc1ccc2c(c1)OCCO2

Next section, overlapping the part above by 6 compounds.
HPGD block	mol
-8.1%	Cc1ccc(S(=O)(=O)C2(C(=O)NC3CCCC3)CC2)cc1
-10.6%	Cc1nc(NCCCn2ccnc2)c2ccccc2n1
-2.1%	CCOC(=O)c1nc(C)n(-c2cc(Cl)ccc2Cl)n1
-2.2%	CCOC(=O)C1CCN(C(=O)Cc2cccs2)CC1
-5.6%	COc1ccc(C(C(=O)NC2CCCCC2)N(C(=O)CCl)c2cccc(Cl)c2)cc1 (configuration not stated)
-3.5%	Cc1ncoc1C(=O)Nc1ccc2c(c1)OCCO2
-8.4%	CCCc1ccc(OCc2ccc(C(=O)N/N=C/c3cccc([N+](=O)[O-])c3)o2)c(OC)c1
-2.1%	COc1ccc(S(=O)(=O)N(CC(=O)N2CCN(C)CC2)c2ccc(C)cc2)cc1OC
?	COc1cc(C(=O)Nc2ccc(-c3nnc(-c4ccco4)o3)cc2)cc(OC)c1OC
-17.5%	Cc1ccc(-c2csc(N(C)C(=O)c3c(C)nn(-c4ccccc4)c3Cl)n2)cc1
-1.8%	COc1ccc(C2CC(c3ccccc3)Nc3nc(N)nn32)cc1 (configuration not stated)
-9.6%	Cc1cccc(Cn2c(C(C)(C)C)cc3cccnc32)c1
-15.2%	O=C(Nc1nccs1)c1cc(N2CCOCC2)nc2ccccc12
-23.1%	C[C@@H]1C=C[C@](Cc2ccccc2)(C(=O)NCCCNc2ncc(C(F)(F)F)cc2Cl)N1C(=O)c1ccccc1

7 entries out of the list, sorted by number of heavy atoms, smallest number first.
HPGD block	mol
-3.5%	Cc1ncoc1C(=O)Nc1ccc2c(c1)OCCO2
-9.6%	Cc1cccc(Cn2c(C(C)(C)C)cc3cccnc32)c1
-15.2%	O=C(Nc1nccs1)c1cc(N2CCOCC2)nc2ccccc12
-17.5%	Cc1ccc(-c2csc(N(C)C(=O)c3c(C)nn(-c4ccccc4)c3Cl)n2)cc1
-5.6%	COc1ccc(C(C(=O)NC2CCCCC2)N(C(=O)CCl)c2cccc(Cl)c2)cc1 (configuration not stated)
-2.1%	COc1ccc(S(=O)(=O)N(CC(=O)N2CCN(C)CC2)c2ccc(C)cc2)cc1OC
-8.4%	CCCc1ccc(OCc2ccc(C(=O)N/N=C/c3cccc([N+](=O)[O-])c3)o2)c(OC)c1

(next part)
HPGD block	mol
-19.0%	CSc1ccc(S(=O)(=O)Nc2ccc3c(c2)OCCO3)cc1
-6.0%	Cc1ccc(NC(=O)CC2Oc3ccccc3NC2=O)c(C)c1 (configuration not stated)
-22.7%	O=c1[nH]cnc2scc(-c3ccsc3)c12
?	CC(C)CCOCc1nc2sc3c(c2c(=O)[nH]1)CCC(C)C3 (configuration not stated)
?	O=C(/C=C/c1ccccc1)N1CCC(c2ccccc2)C1 (configuration not stated)
-8.8%	CCOC(=O)/C(N=Nc1c(Br)cc(Br)cc1Br)=C(\C)O
-10.1%	O=C(O)C1C2CCC(C2)C1C(=O)NCc1ccccn1 (configuration not stated)
-15.8%	O=C(CCCOc1ccccc1)Nc1ncccn1
0.5%	CCCS(=O)(=O)N1CCCC(C(=O)NCCCN2CCCC2=O)C1 (configuration not stated)
-0.3%	O=C(CCCc1cccs1)N1CCN(S(=O)(=O)c2ccccc2Br)CC1
-3.2%	Nc1ccc(NC(=O)c2cccs2)c(Cl)c1
-15.0%	Cc1ccc(Cl)cc1NC(=O)CSc1nnc(C)n1-c1ccccc1
31.6µM*	CCOC(=O)c1c(-c2ccccc2)csc1NC(=O)CSc1nnnn1C
?	COc1ccc(/C=c2\sc3nc(-c4ccccc4OC)nn3c2=O)c(OC)c1
?	N#C/C(=C/c1ccc(N2CCCCC2)o1)c1cccc(F)c1
-2.3%	CCCCNC(=O)c1cc2n(n1)C(C(F)(F)F)CC(c1ccccc1)N2 (configuration not stated)
-7.7%	CCOC(=O)C1=C(c2ccccc2)NC(=S)NC1C (configuration not stated)
-8.2%	CCOC(=O)C(=O)Nc1nnc(CCc2ccccc2)s1

Bioassay records: PubChem BioAssay, National Center for Advancing Translational Sciences (NCATS)
